Screening data deposited in PubChem BioAssay by several laboratories.
ugtP null kill = kills S. aureus RN4220 lacking UgtP | S. aureus RN4220 ugtP deletion, OD600 growth, 16 h; some inactives read as strong as hits | growth inhibition, % (test concentration not listed) | actives 0.54% (n = 330,000);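 active = z-score under -3 and OD600 up to 0.15 on both plates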;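 note: plate controls were untreated wells for no effect and antibiotic for full effect; wells of about 80 µL received 100 nL stock; the first replicate is given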
BJeLR viability = kills HRASV12-expressing BJeLR cells; BJeLR (HRASV12) viability, CellTiter-Glo ATP luminescence, 48 h; reference of the scale not given here; actives 0.17% (n = 300,000); AID 1554; inhibition, % (test concentration not listed);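 active = replicate mean above 50%; inconclusive = above 50% but judged a plate artefact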;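 note: 50 nL library stock added to about 25 µL; numbers are from one replicate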
RN4220 kill = kills Staphylococcus aureus RN4220 | actives 0.33% (n = 330,000) | S. aureus RN4220 growth, OD600, 16 h | inhibition, % (no concentration beside the values);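 active = z-score of -3 or lower and OD600 up to 0.18 on both plates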;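 note: plate controls were untreated cells for no effect and reference antibiotic for full effect; stock transfer was 100 nL into about 80 µL; one replicate is shown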
Autofluor counter = compound fluorescence in toxin protease inhibitor counterscreen | compound autofluorescence counterscreen, microsphere flow cytometry; stronger effect = higher value | fluorescence intensity (concentration not given with the values) | actives 3.1% (n = 360,000) | AID 624483;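 active = at least 3 SD above the mean of all compounds, about 16000 in these data; inconclusive = too few beads counted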;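 note: 100 nL of 1 mM stock went into each well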
PrP 5UTR inh = inhibition of PrP 5' UTR reporter expression. cell-based PrP 5' UTR mRNA reporter, plate reader. inhibition, % (concentration not given with the values). actives 0.35% (n = 340,000). AID 488862;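 active = every replicate at 50% or more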;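 note: 0 = median of the neutral control wells; tested in H4 reporter cells; numbers are from one replicate; inactives centre near -14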
Mtb hypoxia rep = Mtb hypoxia fluorescent reporter inhibition; fluorescence inhibition, % (no concentration beside the values); actives 0.1% (n = 300,000); M. tuberculosis hypoxia-regulated fluorescent reporter, fluorescence;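 active = 35 to 45% if threefold the growth effect, above 45% if 1.5-fold the growth effect; inactive = the rest, general growth blockers included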;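 note: wells of about 50 µL received 100 nL stock; 0% = vehicle wells and 100% = reference inhibitor wells; whole bacteria with a GFP reporter of the hypoxia response; strong numbers were not always called active; many hits fall short of the cut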
Mtb hypoxia rep growth = recorded beside Mtb hypoxia rep, whose call it bears; growth inhibition, %; measured here: M. tuberculosis growth (absorbance);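 0% = vehicle and 100% = reference antibiotic; read after six days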
* marks the source's active call; other numbers are inactive results. Hits appear at their usual frequency; any-hit rate near 4%.

For CN1CSC2=C(C#N)C(c3cccc(OCc4ccccc4)c3)CC(=O)N2C1 (stereo not drawn) the results were ugtP null kill -3, BJeLR viability -9, RN4220 kill -8.0, Autofluor counter 6518, PrP 5UTR inh -4, Mtb hypoxia rep 4 and Mtb hypoxia rep growth 12.
`Cc1[nH]c(C)c(C(=O)/C=C/c2ccc([N+](=O)[O-])cc2)c1C` gave ugtP null kill -5, BJeLR viability 0, RN4220 kill 4.6, Autofluor counter 3828, PrP 5UTR inh -34, Mtb hypoxia rep 7 and Mtb hypoxia rep growth 15.
`CC(C)(C)c1ccc(OCCNC(=S)Nc2ccccc2)cc1` gave ugtP null kill 11, BJeLR viability 3, RN4220 kill -0.4, Autofluor counter 3988, PrP 5UTR inh -18, Mtb hypoxia rep 7 and Mtb hypoxia rep growth 2.
For Cc1ccc(Cn2ccc(NC(=O)c3cc(-c4ccc(Br)cc4)on3)n2)cc1 the results were ugtP null kill 2, BJeLR viability 1, RN4220 kill 1.8, Autofluor counter 16876*, PrP 5UTR inh -9, Mtb hypoxia rep 0 and Mtb hypoxia rep growth -1.
O=C(NCc1ccccc1)c1c(O)c2ccccc2[nH]c1=O was read as ugtP null kill 14, BJeLR viability 1, RN4220 kill 2.9, Autofluor counter 4075, PrP 5UTR inh 6, Mtb hypoxia rep 11 and Mtb hypoxia rep growth 0.
For NC(=O)C1CCN(C(=O)c2ccc3c(=O)n(Cc4cccc(Br)c4)c(=S)[nH]c3c2)CC1 the results were ugtP null kill 9, BJeLR viability -4, RN4220 kill 1.6, Autofluor counter 3664, PrP 5UTR inh -11, Mtb hypoxia rep -10 and Mtb hypoxia rep growth -3.
Screening CC(C)CNS(=O)(=O)c1ccc(CCC(=O)Nc2ccc3c(c2)OCO3)cc1 returned ugtP null kill -2, BJeLR viability -2, RN4220 kill -1.4, Autofluor counter 3084 and PrP 5UTR inh -23.
`COc1ccc(C)cc1S(=O)(=O)N(C)CC(=O)N1CCCCCC1` gave ugtP null kill 5, BJeLR viability -5, RN4220 kill 6.9, Autofluor counter 8858, PrP 5UTR inh -24, Mtb hypoxia rep -3 and Mtb hypoxia rep growth 4.
For CC(/C=C/c1ccc(N(C)C)cc1)=N/N=C1/NC(=O)CC(C(=O)Nc2ccccc2)S1 (stereo not drawn) the results were ugtP null kill -9, RN4220 kill -14, Mtb hypoxia rep 12 and Mtb hypoxia rep growth 1.
CN(Cc1cnccn1)Cc1c(C(=O)N2CCc3ccccc3C2)nc2ccc(Cl)cn12 was read as ugtP null kill 4, BJeLR viability -9, RN4220 kill 1.4, Autofluor counter 2270, PrP 5UTR inh -29, Mtb hypoxia rep 12 and Mtb hypoxia rep growth 10.
C/C(=N/Nc1nc(-c2ccccc2)cc(-c2ccc(F)cc2)n1)c1cccc(N)c1 was read as BJeLR viability 2, Autofluor counter 2057 and PrP 5UTR inh -12.
Cc1ccc(CNC(=O)COC(=O)c2ccc(S(=O)(=O)N3CCCC3)cc2)cc1 was read as ugtP null kill 4, BJeLR viability 6, RN4220 kill -0.8, Autofluor counter 3036, PrP 5UTR inh -15, Mtb hypoxia rep 7 and Mtb hypoxia rep growth 3.
`O=C(C#Cc1ccccc1)c1cccc([N+](=O)[O-])c1` gave BJeLR viability 3, Autofluor counter 10225 and PrP 5UTR inh -12.
For C/C(N)=C(/C#N)C(=O)CSc1ccccc1F the results were BJeLR viability 3, Autofluor counter 4552 and PrP 5UTR inh -55.
`CC(C)(C)n1ncc2c(=O)n(CC(=O)Nc3ccccc3)cnc21` gave ugtP null kill 4, BJeLR viability -7, RN4220 kill 2.5, Autofluor counter 2966, PrP 5UTR inh -8, Mtb hypoxia rep 10 and Mtb hypoxia rep growth 13.
`Cc1nc(Cl)c(C(=O)NCCC(C)C)c(C)c1[N+](=O)[O-]` gave ugtP null kill 11, BJeLR viability 0, RN4220 kill 10, Autofluor counter 2060, PrP 5UTR inh -18, Mtb hypoxia rep 16 and Mtb hypoxia rep growth 5.
Screening CCOC(=O)c1ccc(CC(=O)c2ccc(O)c(O)c2O)o1 returned ugtP null kill 5, BJeLR viability 3, RN4220 kill 20, Autofluor counter 2357, PrP 5UTR inh -30, Mtb hypoxia rep 10 and Mtb hypoxia rep growth -6.
For O=C(COC(=O)c1nc(Cl)ccc1Cl)NC1CCS(=O)(=O)C1 (stereo not drawn) the results were ugtP null kill 4, BJeLR viability 16, RN4220 kill 2.0, Autofluor counter inconclusive, PrP 5UTR inh -21, Mtb hypoxia rep 4 and Mtb hypoxia rep growth -9.
O=C1C2CCCCC2C(=O)N1c1ccc(S(=O)(=O)Nc2ncccn2)cc1 (stereo not drawn) was read as ugtP null kill 5, BJeLR viability 0, RN4220 kill 3.4, Autofluor counter 4111, PrP 5UTR inh -22, Mtb hypoxia rep 2 and Mtb hypoxia rep growth 2.
Screening O=C1C(=O)N(c2ccccn2)C(c2cccc(F)c2)/C1=C(/O)c1ccccc1 (stereo not drawn) returned ugtP null kill 0, BJeLR viability -9, RN4220 kill 3.3, Autofluor counter 3463, PrP 5UTR inh 8, Mtb hypoxia rep 0 and Mtb hypoxia rep growth 15.
COCCCNC(=S)NC(=O)c1ccc([N+](=O)[O-])cc1 was read as ugtP null kill 3, BJeLR viability 8, RN4220 kill 3.4, Autofluor counter 2455, PrP 5UTR inh -25, Mtb hypoxia rep -3 and Mtb hypoxia rep growth -3.
For CCOC(=O)c1[nH]cnc1C(=O)Nc1ccc(F)cc1 the results were ugtP null kill -8, BJeLR viability -5, RN4220 kill 2.5, Autofluor counter 4241, PrP 5UTR inh -6, Mtb hypoxia rep -3 and Mtb hypoxia rep growth 4.
O=C(/C=C/c1ccc(F)cc1)Nc1cccc(S(=O)(=O)Nc2cccc(C(F)(F)F)c2)c1 was read as ugtP null kill -10, BJeLR viability -1, RN4220 kill -4.9, Autofluor counter 2330, PrP 5UTR inh -18, Mtb hypoxia rep 1 and Mtb hypoxia rep growth -5.
For O=C(CCSc1ccc(Br)cc1)Nc1cccnc1 the results were ugtP null kill -4, BJeLR viability -9, RN4220 kill 1.0, Autofluor counter 2481, PrP 5UTR inh -8, Mtb hypoxia rep 7 and Mtb hypoxia rep growth -2.
Screening CCOc1ccc(NC(=O)CN(C)C(=O)c2cc(-c3ccco3)nc3ccccc23)cc1OCC returned ugtP null kill 4, RN4220 kill 1.4, Autofluor counter inconclusive, PrP 5UTR inh -18, Mtb hypoxia rep -11 and Mtb hypoxia rep growth 6.
Screening COc1ccc(NC2CCCN(Cc3cccc4cnccc34)C2)cc1 (stereo not drawn) returned ugtP null kill 1, BJeLR viability -10, RN4220 kill 0.3, Autofluor counter 3745, PrP 5UTR inh -10, Mtb hypoxia rep -1 and Mtb hypoxia rep growth 3.
`Cn1c(CC(=O)NN)c(Sc2ccccc2)c2ccccc21` gave ugtP null kill 12, BJeLR viability 5, RN4220 kill -2.0, Autofluor counter 3292, PrP 5UTR inh -9, Mtb hypoxia rep 2 and Mtb hypoxia rep growth 5.
`CCCCNC(=O)NS(=O)(=O)c1ccc(C(=O)OC(C)C)o1` gave ugtP null kill -1, BJeLR viability -2, RN4220 kill 12, Autofluor counter inconclusive, PrP 5UTR inh -13, Mtb hypoxia rep -6 and Mtb hypoxia rep growth 12.
Screening Cc1c(NS(=O)(=O)c2cc([N+](=O)[O-])ccc2Cl)c(=O)n(-c2ccccc2)n1C returned ugtP null kill 7, BJeLR viability -7, RN4220 kill 2.4, Autofluor counter 3722, PrP 5UTR inh -4, Mtb hypoxia rep -2 and Mtb hypoxia rep growth 7.
`O=C(COc1ccc2ccccc2c1)NCCNC(=O)COc1ccc2ccccc2c1` gave ugtP null kill 1, BJeLR viability 0, RN4220 kill -4.0, Autofluor counter 2321 and PrP 5UTR inh -19.
For CCOC(=O)/C(C#N)=C/c1cc(C)n(-c2ccccc2)c1C the results were ugtP null kill 19, BJeLR viability 2, RN4220 kill 21, Autofluor counter 3341, PrP 5UTR inh 5, Mtb hypoxia rep 3 and Mtb hypoxia rep growth 4.
CCCCN(CC)CCNC(=O)CCNC(=O)Cn1ccc2ccccc2c1=O was read as ugtP null kill 1, BJeLR viability 3, RN4220 kill 2.4, Autofluor counter 4467, PrP 5UTR inh -16, Mtb hypoxia rep 5 and Mtb hypoxia rep growth 1.
CCc1csc(CNC(=O)C2CCC(=O)N(Cc3cccc(F)c3)C2)n1 (stereo not drawn) was read as ugtP null kill 5, BJeLR viability -4, RN4220 kill 4.4, Autofluor counter 5505, PrP 5UTR inh -11, Mtb hypoxia rep -7 and Mtb hypoxia rep growth -15.
For CC(=O)NCC(O)c1ccc([N+](=O)[O-])cc1 (stereo not drawn) the results were ugtP null kill 7, BJeLR viability 1, RN4220 kill -1.6, Autofluor counter 3569, PrP 5UTR inh -1, Mtb hypoxia rep 7 and Mtb hypoxia rep growth -7.
Screening Cc1csc(=O)n1CC(=O)Nc1ccc(Cl)c(Cl)c1 returned ugtP null kill -13, RN4220 kill -5.3, Autofluor counter 4194, PrP 5UTR inh -25, Mtb hypoxia rep 1 and Mtb hypoxia rep growth -4.
`Cc1ccc(Nc2c(-c3ccccn3)nc3cc(C)ccn23)cc1` gave ugtP null kill 100*, BJeLR viability 39, RN4220 kill 100*, Autofluor counter 3533, PrP 5UTR inh 2, Mtb hypoxia rep 23 and Mtb hypoxia rep growth 5.
CCN1CCN(CC(=O)Nc2cc(F)ccc2C)CC1 was read as ugtP null kill 3, BJeLR viability -7, RN4220 kill 0.4, Autofluor counter 3252 and PrP 5UTR inh -30.
For Cc1ccc2c(c1)N(C(=O)CCC(=O)NC1CCCCCC1)CC(C)O2 (stereo not drawn) the results were ugtP null kill 4, BJeLR viability -7, RN4220 kill 11, Autofluor counter 5445, PrP 5UTR inh -7, Mtb hypoxia rep 0 and Mtb hypoxia rep growth 9.
Screening CCC(NC(=O)c1ccccc1NC(=O)c1ccco1)C(=O)NNC(=O)c1ccncc1 (stereo not drawn) returned ugtP null kill 0, BJeLR viability -4, RN4220 kill 3.4, Autofluor counter 3360, Mtb hypoxia rep 2 and Mtb hypoxia rep growth 2.
Screening Cc1ccc(S(=O)(=O)N2CCCCC2)cc1NC(=O)Nc1ccc(Cl)cc1Cl returned ugtP null kill 3, RN4220 kill 2.4, Autofluor counter 2221, PrP 5UTR inh -17, Mtb hypoxia rep 14 and Mtb hypoxia rep growth 2.
`Cc1cc(C)cc(NC(=O)C(OC(=O)c2cc[n+]([O-])cc2)c2ccccc2)c1` (stereo not drawn) gave ugtP null kill 5, RN4220 kill 5.4, Autofluor counter 5416, PrP 5UTR inh -10, Mtb hypoxia rep 6 and Mtb hypoxia rep growth 6.

Reprinted at random: 2 records from the list
`Cc1cc(C)cc(NC(=O)C(OC(=O)c2cc[n+]([O-])cc2)c2ccccc2)c1` (stereo not drawn) gave ugtP null kill 5, RN4220 kill 5.4, Autofluor counter 5416, PrP 5UTR inh -10, Mtb hypoxia rep 6 and Mtb hypoxia rep growth 6.
Screening Cc1csc(=O)n1CC(=O)Nc1ccc(Cl)c(Cl)c1 returned ugtP null kill -13, RN4220 kill -5.3, Autofluor counter 4194, PrP 5UTR inh -25, Mtb hypoxia rep 1 and Mtb hypoxia rep growth -4.

Part of the list above in order of length of the SMILES, lowest first:
CCN1CCN(CC(=O)Nc2cc(F)ccc2C)CC1 was read as ugtP null kill 3, BJeLR viability -7, RN4220 kill 0.4, Autofluor counter 3252 and PrP 5UTR inh -30.
For CCOC(=O)/C(C#N)=C/c1cc(C)n(-c2ccccc2)c1C the results were ugtP null kill 19, BJeLR viability 2, RN4220 kill 21, Autofluor counter 3341, PrP 5UTR inh 5, Mtb hypoxia rep 3 and Mtb hypoxia rep growth 4.
CCc1csc(CNC(=O)C2CCC(=O)N(Cc3cccc(F)c3)C2)n1 (stereo not drawn) was read as ugtP null kill 5, BJeLR viability -4, RN4220 kill 4.4, Autofluor counter 5505, PrP 5UTR inh -11, Mtb hypoxia rep -7 and Mtb hypoxia rep growth -15.

Compounds listed so far containing a cyano group (three):
For CN1CSC2=C(C#N)C(c3cccc(OCc4ccccc4)c3)CC(=O)N2C1 (stereo not drawn) the results were ugtP null kill -3, BJeLR viability -9, RN4220 kill -8.0, Autofluor counter 6518, PrP 5UTR inh -4, Mtb hypoxia rep 4 and Mtb hypoxia rep growth 12.
For C/C(N)=C(/C#N)C(=O)CSc1ccccc1F the results were BJeLR viability 3, Autofluor counter 4552 and PrP 5UTR inh -55.
For CCOC(=O)/C(C#N)=C/c1cc(C)n(-c2ccccc2)c1C the results were ugtP null kill 19, BJeLR viability 2, RN4220 kill 21, Autofluor counter 3341, PrP 5UTR inh 5, Mtb hypoxia rep 3 and Mtb hypoxia rep growth 4.
